Bioassay records as filed in PubChem.
RGS16-Gao HTS: modulators of RGS16 binding to Galphao, primary screen, biochemical, human proteins, multiplexed bead flow cytometry; 0.38% of 220,000 active; Regulator of G-protein signaling 16 (Homo sapiens) + Guanine nucleotide-binding protein …; binding response (% of control), % at 10 µM; bead-based flow cytometry RGS16-Galphao binding, fluorescence; actives lie on both sides;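 active means below 25% or above 175%, edge rows of some plates excepted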;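 further: Galphao activated by GDP with aluminum fluoride before binding; 100% = wells without compound and 0% = beads without RGS; some results beyond the cut were filed as inactive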
INS promoter inh: inhibitors of insulin promoter-driven GFP, primary screen, imaging, TRM-6 cells (human fetal islet line), eGFP reporter, cell count; reporter expression induced with tamoxifen; inhibition, % at 2 µM; 0.9% of 130,000 active; AID 1273, 2008;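 active means inhibition above the mean plus 3 SD, with well images judged a real hit on visual review, cut at about 60% in these data, passing the limit was not always enough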
PKD1 kinase inh: inhibitors of human PKD1 kinase, biochemical, fluorescence polarization. inhibition, %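 (about 10 µM by stock and volumes)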. 0.056% of 200,000 active. Serine/threonine-protein kinase D1 (Homo sapiens), Q15139. PKD1 kinase fluorescence polarization assay;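 active means inhibition of 50% or more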;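 further: controls were vehicle for no effect and a reference inhibitor for full effect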
Target sequence (Q15139 whole entry, looked up): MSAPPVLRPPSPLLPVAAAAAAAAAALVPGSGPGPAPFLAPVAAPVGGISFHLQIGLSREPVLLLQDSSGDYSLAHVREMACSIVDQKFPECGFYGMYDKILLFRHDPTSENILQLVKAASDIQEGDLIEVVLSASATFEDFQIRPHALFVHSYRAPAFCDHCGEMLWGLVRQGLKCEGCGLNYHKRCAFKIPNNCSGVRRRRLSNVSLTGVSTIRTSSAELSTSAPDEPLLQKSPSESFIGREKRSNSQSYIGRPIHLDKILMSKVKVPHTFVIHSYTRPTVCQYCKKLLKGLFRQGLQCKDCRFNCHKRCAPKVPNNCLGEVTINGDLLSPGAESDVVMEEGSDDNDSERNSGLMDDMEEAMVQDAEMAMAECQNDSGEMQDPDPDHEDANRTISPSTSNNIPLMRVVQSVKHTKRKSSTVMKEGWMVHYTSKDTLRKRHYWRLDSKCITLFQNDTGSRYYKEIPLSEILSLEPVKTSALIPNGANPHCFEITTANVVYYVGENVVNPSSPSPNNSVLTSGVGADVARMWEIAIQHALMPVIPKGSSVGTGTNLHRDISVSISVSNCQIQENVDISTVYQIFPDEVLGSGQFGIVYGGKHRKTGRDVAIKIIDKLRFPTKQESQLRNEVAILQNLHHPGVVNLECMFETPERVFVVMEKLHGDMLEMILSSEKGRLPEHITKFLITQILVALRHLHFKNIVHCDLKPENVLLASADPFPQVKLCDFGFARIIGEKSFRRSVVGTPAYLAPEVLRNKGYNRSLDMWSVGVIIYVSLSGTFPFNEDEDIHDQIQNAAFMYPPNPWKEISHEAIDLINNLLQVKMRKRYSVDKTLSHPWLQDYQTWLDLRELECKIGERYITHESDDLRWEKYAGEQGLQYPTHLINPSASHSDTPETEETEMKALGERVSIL
GALR2 ag: GALR2 receptor agonists, primary screen, cell-based. Galanin receptor type 2 (Homo sapiens), O43603. GALR2-expressing cells, agonist activation read-out. activation, %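 (tested at 5 µM)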. 0.48% of 140,000 active;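 active means above mean plus 3 SD of all compounds, about 5% in these data, not always enough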;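 further: 0% = vehicle buffer wells and 100% = reference agonist at full effect; tested in CHO reporter cells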
HSV replic up: enhancers of HSV replication in host cells, fold increase, host cell viability. 0.005% of 220,000 active. AID 1956, 2009. maximum fold increase. HSV replication augmentation in cells;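 active means peak rise of 1.5-fold or more in the series; tested in PC3 cells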;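 further: first round at 10 µM; read as green reporter fluorescence; hits show the peak of a series up to 25 µM; 1 = signal of infected wells without compound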
INS promoter inh cell count: also measured in INS promoter inh; calls as there; normalized cell count, %; measured here: cell count, toxicity; reference of the scale not given here;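 cells exposed to compound for 48 h; stained nuclei by imaging scaled within each plate; lower means fewer cells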
HSV replic up primary fold: second read-out of HSV replic up, no call of its own (marks repeat the call); fold increase; compound at 10 µM; measured here: primary screen fold increase 10 uM; tested in PC3 cells;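 GFP signal in the first replicate; 1 = infected wells without compound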
* marks the source's active call; other numbers are inactive results; i = inactive; · = no result given. The order is random; about 1.3% have a hit in one of these screens.

Results follow in this order: INS promoter inh, GALR2 ag, RGS16-Gao HTS, INS promoter inh cell count, PKD1 kinase inh, HSV replic up, HSV replic up primary fold
> CC(=O)NC1=NN(C(C)=O)C(C)(c2ccc(Br)cc2)S1 (configuration not stated)
 : -9, ·, 101, 90, -6, i, 0.89
> CN(Cc1ccccc1)C(=O)CCSc1nc(-c2ccc3c(c2)OCO3)cc(C(F)(F)F)n1
 : 57, -1.5, 96, 131, -13, i, 1
> O=C(Nc1cccc(CCc2ccccn2)c1)c1cc(F)c(F)cc1Cl
 : -62, -1.8, 104, 109, -12, ·, ·
> CC1(C)C(=O)Nc2ccccc2N1C(=O)CN1C(=O)c2ccccc2C1=O
 : ·, -0.2, 102, ·, -9, i, 0.87
> Cc1sc(NC(=S)NC(=O)c2ccc(C(C)(C)C)cc2)c(C#N)c1C
 : 15, -2.0, 104, 59, -2, i, 1
> Cc1ccc(S(=O)(=O)NCC(=O)N(CCc2ccccc2)CC(=O)NCc2ccco2)cc1
 : ·, -0.4, 98, ·, 1, i, 1.2
> Cc1ccc(NC2c3ncccc3C(=O)N2Cc2cccs2)cc1C (configuration not stated)
 : -35, ·, 110, 46, 3, i, 1.1
> O=C/C(=C\Nc1ccccn1)c1nc2ccccc2o1
 : -228, -0.2, 102, 97, -2, i, 1.3
> CCOC(=O)CNc1cccc(C(F)(F)F)c1
 : -11, ·, 100, 128, -13, i, 0.94
> COc1ccc(/C=N/c2oc(-c3ccccc3)cc2C#N)cc1OC
 : -30, -1.3, 95, 89, 0, i, 0.88
> COc1ccccc1-c1cc(N)n[nH]1
 : ·, -0.6, 102, ·, -7, i, 0.98
> Cc1nc(/N=C(\N)NC(=O)N2c3ccccc3Sc3ccccc32)nc2ccccc12
 : -8, 0.5, 103, 108, -3, i, 0.87
> CCNC(=O)c1ccccc1NC(=O)c1cccc(S(=O)(=O)N2CCC(C)CC2)c1
 : -6, -0.6, 105, 33, -1, i, 0.72
> COc1ccc(Br)cc1C(=O)O
 : 9, 0.2, 113, 83, -6, i, 1.1
> Cc1cc(-n2c(SCC(=O)NCc3cccs3)nc3n[nH]c(C)c3c2=N)ccc1Cl
 : ·, 0.4, 98, ·, -7, i, 0.86
> COc1ccc(-n2nnnc2SCC(=O)N2CCCc3ccccc32)cc1OC
 : -116, -1.8, 120, 81, -7, i, 1
> Cc1ccc(S(=O)(=O)N2c3ccccc3CC2C)cc1 (configuration not stated)
 : ·, ·, 98, ·, 3, i, 0.98
> COc1cc(SC)ccc1C(=O)Nc1ccon1
 : -34, -2.4, 105, 91, -1, i, 0.87
> COc1ccccc1C(=O)Nc1ncc2c(n1)CC(c1ccco1)CC2=O (configuration not stated)
 : ·, -3.0, 100, ·, 3, i, 1.1
> O=C(CSc1nnc(CCc2nc3ccccc3[nH]2)n1-c1ccccc1)NCc1ccccc1
 : 27, -1.3, 110, 78, -6, i, 1

7 entries from above, in markdown.
| canonical_smiles | INS promoter inh | GALR2 ag | RGS16-Gao HTS | INS promoter inh cell count | PKD1 kinase inh | HSV replic up | HSV replic up primary fold |
| --- | --- | --- | --- | --- | --- | --- | --- |
| COc1ccc(-n2nnnc2SCC(=O)N2CCCc3ccccc32)cc1OC | -116 | -1.8 | 120 | 81 | -7 | i | 1 |
| O=C(CSc1nnc(CCc2nc3ccccc3[nH]2)n1-c1ccccc1)NCc1ccccc1 | 27 | -1.3 | 110 | 78 | -6 | i | 1 |
| Cc1ccc(S(=O)(=O)NCC(=O)N(CCc2ccccc2)CC(=O)NCc2ccco2)cc1 | · | -0.4 | 98 | · | 1 | i | 1.2 |
| CCOC(=O)CNc1cccc(C(F)(F)F)c1 | -11 | · | 100 | 128 | -13 | i | 0.94 |
| CC1(C)C(=O)Nc2ccccc2N1C(=O)CN1C(=O)c2ccccc2C1=O | · | -0.2 | 102 | · | -9 | i | 0.87 |
| COc1ccccc1-c1cc(N)n[nH]1 | · | -0.6 | 102 | · | -7 | i | 0.98 |
| CCNC(=O)c1ccccc1NC(=O)c1cccc(S(=O)(=O)N2CCC(C)CC2)c1 | -6 | -0.6 | 105 | 33 | -1 | i | 0.72 |

Next section.
Results follow in this order: INS promoter inh, GALR2 ag, RGS16-Gao HTS, INS promoter inh cell count, PKD1 kinase inh, HSV replic up, HSV replic up primary fold
> Brc1ccc(CSc2ncn[nH]2)cc1
 : ·, -0.6, 94, ·, -14, i, 0.97
> O=C(CN(c1ccccn1)S(=O)(=O)c1ccccc1)Nc1ccccc1
 : 23, ·, 102, 117, -2, ·, ·
> Cc1ccc(S(=O)(=O)N2CCC(C(=O)N[C@@H](C)C(=O)Nc3ccc4c(c3)OCO4)CC2)cc1
 : ·, -0.2, 101, ·, 13, i, 1.2
> CN(C)c1ccc(C(=O)c2ccccc2C(=O)O)c(O)c1
 : 35, -1.9, 81, 122, 0, i, 1
> Cc1cccc(C)c1N1CCN(S(=O)(=O)N(C)C)CC1
 : -61, ·, 107, 103, 6, i, 1.1
> Cc1cccc(/C=N\NC(=O)c2csnn2)c1
 : -37, -1.2, 102, 46, -3, i, 0.94
> CCCSc1nnc(-c2c[nH]c3ccccc23)n1CC
 : ·, 1.7, 100, ·, 2, i, 0.9
> COc1ccccc1NC(=O)CN1CCN(c2ccccn2)CC1
 : -14, -1.0, 66, 143, -3, i, 1.3
> Cn1nc(-c2ccc(Cl)cc2)c2cc(C(=O)N3CCN(c4ccccc4)CC3)sc21
 : ·, -1.2, 108, ·, 3, i, 0.89
> COc1ccccc1C(c1nnnn1CC1CCCO1)N1CCC(C(N)=O)CC1 (configuration not stated)
 : 50, -1.5, 96, 135, -2, i, 1
> Cc1ccc(NS(=O)(=O)c2ccc(CCC(=O)NCc3ccccn3)cc2)cc1
 : -12, ·, 96, 86, 2, i, 1.1
> COc1ccc(-c2csc3nc(-c4ccccc4)oc(=O)c23)cc1OC
 : 14, ·, 97, 162, 5, i, 1.1
> O=C(NCCCN1CCOCC1)c1ccc(Sc2ccccc2Cl)c([N+](=O)[O-])c1
 : -32, -0.8, 106, 125, -7, i, 0.97
> COc1ccc(/C=C(\C#N)C(=O)NCc2cccs2)cc1OC
 : -24, -1.7, 107, 104, -7, i, 0.95
> CCc1nnc(NC(=O)CN2C(=O)/C(=C/c3ccc(OC)c(OC)c3)SC2=S)s1
 : ·, ·, 103, ·, -1, i, 0.7
> Cc1cc(C)cc(Nc2nc3c(S(=O)(=O)c4ccccc4)nnn3c3ccccc23)c1
 : -48, 0.2, 103, 96, -17, i, 0.92
> CC(=O)Nc1ccc(S(=O)(=O)Nc2ccccn2)cc1
 : ·, ·, 107, ·, 7, i, 0.95
> Cc1ccc(S(=O)(=O)N2CCN(C(=O)CSc3nnnn3C)C2)cc1
 : -24, -0.1, 100, 156, 0, i, 0.84
> Cc1ccc(C(=O)Nc2nn(C)c3cccc(F)c23)cc1
 : ·, ·, 105, ·, ·, i, 0.86
> C=CCSc1nnc(-c2ccccc2NC(C)=O)c(=O)[nH]1
 : 10, -2.9, 99, 112, -8, i, 0.82

(next part)
Results follow in this order: INS promoter inh, GALR2 ag, RGS16-Gao HTS, INS promoter inh cell count, PKD1 kinase inh, HSV replic up, HSV replic up primary fold
> CCOc1cccc(-c2csc(C3COc4ccccc4O3)n2)c1 (configuration not stated)
 : ·, -1.0, 43, ·, 15, i, 0.93
> Cc1c(C(=O)N/N=C/c2ccc(N3CCOCC3)cc2)nc2ccccn12
 : ·, ·, 101, ·, -2, i, 0.98
> Cc1ccc(NNC(=O)CCc2ccccc2)c(C)c1
 : ·, ·, 105, ·, ·, i, 1.1
> CCc1ccc(NC(=O)Nc2cccs2)cc1
 : ·, -1.9, -20*, ·, -3, i, 1
> O=C(CCC1CCCN(C(=O)CC2=CCCCC2)C1)N1CCN(c2ccccn2)CC1 (configuration not stated)
 : ·, ·, 113, ·, -4, i, 0.81
> CC(C)(C)[C@H]1C=C(C(=O)NCc2ccccc2)O[C@@H](OCc2ccc(CO)cc2)C1
 : ·, ·, 100, ·, 2, i, 1.1
> CCOC(=O)N1CCN(C(=O)c2nc3ccccc3s2)CC1
 : 31, -1.2, 105, 92, 2, i, 0.92
> CC(C)(C)OC(=O)N1CCC(CNC(=O)c2cccs2)CC1
 : ·, ·, 102, ·, ·, i, 0.94
> C#CC[N+]1(CC#Cc2ccc(C#CC[N+]3(CC#C)CCOCC3)cc2)CCOCC1
 : 45, -1.8, 70, 112, -5, ·, ·
> O=C(CSCc1c(Cl)cccc1Cl)Nc1ccccc1-c1ccccc1
 : -33, -1.9, 109, 96, -5, i, 0.98
> Cc1ccc(-c2nnc(N(C)C(=O)C3CCCO3)s2)cn1 (configuration not stated)
 : 7, -1.9, 95, 116, -7, i, 0.92
> COc1ccc(/C=C2\SC(=O)N(CCNC(=O)Cc3coc4cc(OC)ccc34)C2=O)cc1
 : -19, -0.8, 46, 104, -10, i, 0.77
> Cn1c(=O)[nH]c(=O)c2c1nc(CN1CCN(c3ccc(F)cc3)CC1)n2CCc1ccccc1
 : -329, -1.3, 112, 93, -11, i, 0.93
> O=C(C[n+]1cccc(/C=N/O)c1)N1CCCc2ccccc21
 : -53, ·, 102, 82, -5, i, 0.89
> Nc1cc(S(=O)(=O)O)cc([N+](=O)[O-])c1O
 : ·, ·, 106, ·, -8, i, 0.91
> O=C(CN=C1NS(=O)(=O)c2ccccc21)OCC(=O)c1ccccc1
 : ·, ·, 90, ·, ·, i, 0.92
> CCCNC(=O)NCc1ccc(N2CCCC2=O)cc1
 : 31, -1.9, 100, 109, -3, i, 0.92
> COc1cccc(Nc2nc(-c3ccc(O)cc3)cs2)c1
 : 15, -3.6, 103, 116, -1, i, 0.79
> O=C(N/N=C/c1ccc(Cl)c([N+](=O)[O-])c1)c1ccc2nc[nH]c2c1
 : 21, 0.0, 100, 92, 0, i, 0.94
> Cc1ccc(-c2nc(CSc3nc4ccccc4c(=O)n3CCO)cs2)cc1
 : 30, -0.2, 107, 64, -13, i, 0.89

Later entries.
Results follow in this order: INS promoter inh, GALR2 ag, RGS16-Gao HTS, INS promoter inh cell count, PKD1 kinase inh, HSV replic up, HSV replic up primary fold
> Cc1cc(C(=O)CN2C(=O)CN(C)C2=O)c(C)n1-c1cccc(S(=O)(=O)N2CCOCC2)c1
 : -7, ·, 100, 126, 13, i, 0.85
> COC(=O)c1ccccc1NC(=O)Nc1cccc(C)n1
 : ·, ·, 95, ·, -1, i, 1.1
> CCOC(=O)N1CCN(S(=O)(=O)c2ccc(OC)c3ccccc23)CC1
 : 0, -1.5, 164, 158, 5, i, 1
> CCCc1sc(N/N=C/c2ccccn2)nc1-c1ccc(F)cc1
 : ·, -1.9, 112, ·, 3, i, 0.57
> CCOC(=O)c1ccc(NC(=O)CSc2nc(C)nc3c2c(=O)n(C)c(=O)n3C)cc1
 : ·, -1.7, 103, ·, -10, i, 0.92
> O=C(Cc1c[nH]c2ccccc12)OCC(=O)c1ccccc1
 : 22, -1.8, 98, 154, -4, i, 0.93
> CCOC(=O)Cc1c(C)c2c(O)cc(O)cc2oc1=O
 : 15, 1.0, 100, 73, 3, i, 0.84
> Cc1cccc(OCC(=O)NCC2CCCO2)c1C (configuration not stated)
 : ·, ·, 100, ·, 3, i, 1
> CCOc1cc(NS(=O)(=O)c2ccc(NC(C)=O)cc2)c(OCC)cc1NC(=O)C(C)C
 : -51, -2.1, 100, 157, 7, i, 0.91
> COc1ccccc1C(=O)Nc1ccc2c(c1)OCO2
 : 30, 0.0, 100, 102, 5, i, 1.2
> O=C(CCl)Nc1ccc(N2CCCCCC2)cc1
 : ·, ·, 105, ·, -11, i, 0.91
> O=C(COc1cccnc1[N+](=O)[O-])Nc1ccc(Cl)c(S(=O)(=O)N2CCOCC2)c1
 : ·, ·, 103, ·, ·, i, 1.3
> CN(CC(=O)Nc1c(Cl)cccc1Cl)C(=O)CCCN1C(=O)c2ccccc2C1=O
 : 8, -1.1, 97, 67, -5, i, 1.1
> CC1(C)Cc2cccc(OCC(=O)Nc3ccc(OCC(N)=O)cc3)c2O1
 : -58, ·, 111, 112, 1, i, 0.94
